# RE007 growth inh = less growth of the S. pombe RE007 Vpr strain; actives 0.21% (n = 360,000); AID 651644; Potency, µM (titrated, usually from 92.2 µM), for the others: at the top dose activity change, negative = less growth; S. pombe RE007 Vpr strain, BacTiter-Glo ATP luminescence, 24 h; control for the full effect not named in the record; active = well fitted falling curve with a large enough effect; inconclusive = small, poorly fitted or top-dose-only effect; inactive = no such curve, though single readings can be large or run the other way;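 also: % is scaled to controls: 0 for no effect and ±100 for the full control effect; nearly all actives have a fitted effect of over 50% in size; the assay follows cell death caused by Vpr and the record does not say whether a fall means rescue or toxicity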
#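 Fission yeast strain RE007, carrying one chromosomally integrated HIV-1 vpr copy, was seeded at OD 0.01 in PMG+AL medium with 23 nL pinned compound. After 24 h at 30 °C and 99% humidity, viability was read by BacTiter-Glo luminescence.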
# NS1 inh = influenza NS1 inhibition. S. cerevisiae slowed by influenza A NS1, growth recovery by OD600. AID 2326. Potency, µM (top dose mostly 46.1 µM), inactives show at the top dose activity, positive = more growth. actives 0.4% (n = 270,000); active means well fitted rising curve with a large enough effect; inconclusive means small, poorly fitted or top-dose-only effect; inactive means no such curve, though single readings can be large or run the other way; also: nearly all actives have a fitted effect of over 50% in size
#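 A cell-based growth assay was used: compounds that relieve NS1-induced slow growth of budding yeast raise OD600. Assay medium was yeast nitrogen base with ammonium sulphate and -URA supplement, pH 6.0, with 2% galactose.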
# MARV entry inh = blocks Marburg virus binding to or entry into cells; Marburg virus pseudotyped entry inhibition, cell reporter; control for the full effect not named in the record; about a third of the inactives were read at about 46 µM; actives 1.8% (n = 300,000); Potency, µM (series often up to 37.8 µM), inactives show at the highest dose activity change, negative = inhibition, actives largely listed as inhibitors; active = well fitted inhibition curve with a large enough effect; inconclusive = small, poorly fitted or top-dose-only effect, or effect the other way; inactive = flat fitted curve, though single readings scatter; tested in HEK293 cells; about a fifth of its hits are not listed in these tables; also: % is scaled to controls: 0 for no effect and ±100 for the full control effect; luciferase read-out
# 2A StopGo = FMDV 2A StopGo reporter, luciferase signal | human cells with a luciferase reporter of 2A StopGo recoding; control for the full effect not named in the record | Potency, µM (doses to about 57.9 µM), without a hit: at the highest dose signal change, negative = less light | actives 1.2% (n = 410,000) | AID 1159524; active = well fitted falling curve with a large enough effect; inconclusive = small, poorly fitted or top-dose-only effect; inactive = no such curve, though single readings can be large or run the other way; tested in HEK293T cells; also: % is scaled to controls: 0 for no effect and ±100 for the full control effect; nearly all actives have a fitted effect of over 45% in size; luciferase light after 4 h
# Cruzain inh Det = blocks cruzain activity in presence of Triton detergent; AID 1478; actives 0.43% (n = 200,000); Potency, µM, for the others: max response, negative = inhibition, most hits filed as inhibitors; P25779; purified cruzain, Z-FR-AMC fluorescence, 0.01% Triton;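 also: plate controls were neutral wells for no effect and buffer without enzyme for full effect; nearly all actives have a fitted effect of over 40% in size; top concentration of the series not given in the record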
# Target sequence (P25779 123-467 limits assumed): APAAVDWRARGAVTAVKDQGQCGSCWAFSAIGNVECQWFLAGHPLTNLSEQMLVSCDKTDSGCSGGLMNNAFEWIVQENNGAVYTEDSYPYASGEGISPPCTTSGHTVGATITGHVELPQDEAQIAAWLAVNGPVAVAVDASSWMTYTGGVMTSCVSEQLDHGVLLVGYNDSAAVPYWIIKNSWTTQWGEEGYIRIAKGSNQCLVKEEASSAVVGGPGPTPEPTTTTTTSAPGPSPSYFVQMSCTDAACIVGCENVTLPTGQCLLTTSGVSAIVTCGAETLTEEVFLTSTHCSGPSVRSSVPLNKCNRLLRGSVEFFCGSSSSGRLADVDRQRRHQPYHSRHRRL
#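 Enzyme 1.5 nM, Z-FR-AMC 2 uM, NaOAc 100 mM pH 5.5, DTT 5 mM, Triton X-100 0.01%; 15 min RT compound preincubation; kinetic ex360/em450, 60 s delta.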
# Lassa entry inh = Lassa virus entry inhibition. Lassa virus pseudotype entry inhibition, cell reporter; control for the full effect not named in the record. Potency, µM (doses to about 37.9 µM), for inactives: at the highest dose activity change, negative = inhibition, actives largely listed as inhibitors. actives 1.2% (n = 300,000). AID 540256; active means well fitted inhibition curve with a large enough effect; inconclusive means small, poorly fitted or top-dose-only effect, or effect the other way; inactive means flat fitted curve, though single readings scatter; tested in HEK293 cells; also: % is scaled to controls: 0 for no effect and ±100 for the full control effect; nearly all actives have a fitted effect of over 50% in size; luciferase read-out
# Cruzain inh noDet = inhibitors of Trypanosoma cruzi cruzain without detergent; purified cruzain, Z-FR-AMC fluorescence, no detergent; Potency, µM, without a hit: max response, negative = inhibition, usual class: inhibitors; actives 2.3% (n = 200,000);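 also: plate controls were enzyme without inhibitor for no effect and buffer without enzyme for full effect; nearly all actives have a fitted effect of over 40% in size; top concentration of the series not given in the record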
#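 Purified cruzain at 1.5 nM, pre-incubated 15 min with compound at room temperature in 100 mM sodium acetate pH 5.5, 5 mM DTT, 0.00005% Triton X-100. Reaction started with 2 uM Z-FR-AMC; AMC fluorescence increase over 60 s gives rate.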
# SARS PLP yeast = SARS-CoV PLP inhibition in yeast | Potency, µM (top dose mostly 32.9 µM), for inactives: at the top dose activity, positive = growth rescue | S. cerevisiae expressing SARS-CoV PLpro, growth rescue; control for the full effect not named in the record | AID 485353 | actives 0.19% (n = 330,000); active means well fitted rising curve with a large enough effect; inconclusive means small, poorly fitted or top-dose-only effect; inactive means no such curve, though single readings can be large or run the other way; also: 0% is about no effect; nearly all actives have a fitted effect of over 55% in size; growth read by luminescence after 48 h
# Active calls of the source: *; ? = inconclusive; . = no result given; & = joins results of further samples; [ ] = another dose, or the depositor's remark. Unless noted, calls follow the shape of the dose curve; as a rule, active = well fitted curve in the direction sought with a large enough effect; inconclusive = small, poorly fitted or top-dose-only effect, or another doubt; inactive = no such curve, though single readings can be large; an effect the other way counts as inactive or inconclusive. Potency is read from the fitted curve at half-maximal effect. Outcome played no part in choosing rows; 4.7% or so of the library scored in one or more.
Molecule	RE007 growth inh	NS1 inh	MARV entry inh	2A StopGo	Cruzain inh Det	Lassa entry inh	Cruzain inh noDet	SARS PLP yeast
CCCOc1ccc(CNC(=O)CCCn2nc(C)c3sc4ccccc4c3c2=O)cc1	.	.	?	-4.2%	-7.8%	?	?	.
COC(=O)CC1COc2ccccc2N1C(=O)c1cccc(Cl)c1 (stereo not given)	3.3%	-6.9%	-18.8%	-18.2%	-0.3%	-0.4%	-1.5%	-0.7%
COCCNC(=O)C(c1ccc(F)cc1)N(Cc1ccco1)C(=O)CCC(=O)Nc1nccs1 (stereo not given)	-0.5%	-1.7%	2.3%&-2.4%	-7.9%	4.6%	-9.7%	?	1.4%
Cc1nn(-c2nc3ccccc3s2)c(N)c1-c1ccccc1	-0.3%	14.1%	0.1%	.	-1.3%	-9.5%	?	3.5%
O=C(NCc1csc(-c2cccs2)n1)c1ccccc1	-16.2%	-8.4%	.	51.1%[activator]	.	.	.	-1.0%
COC(=O)c1cnn(-c2ccc(C(=O)Nc3ccc(OC(F)(F)F)cc3)cc2)c1N	.	.	.	-60.4%	-1.0%	8.8%[46.1 µM]	2.6%	.
O=C(NCCOC(=O)C1COc2ccccc2O1)C1COc2ccccc2O1 (stereo not given)	-2.5%	-21.7%	-4.3%	-9.9%	3.4%	6.7%	8.0%	0.9%
CCOC(=O)c1[nH]c(C)c(/C(O)=C2\C(=O)C(=O)N(CCN(C)C)C2c2ccco2)c1C (stereo not given)	-3.4%	-0.2%	1.1%	-8.6%	-5.1%	12.3%	2.6%	2.1%
COc1cccc(C(=O)N2CCN(Cc3ccc(OC)cc3OC)CC2)c1	-1.8%	6.8%	.	-19.5%	.	.	.	5.6%
COc1ccc(NC(=O)COCc2cc(-c3ccco3)on2)cc1	.	.	.	3.3%	0.0%	25.8%[46.1 µM]	-6.2%	.
CCOC(=O)N1CCC(NC(=O)CSCc2nc(-c3sccc3C)oc2C)CC1	4.5%	0.1%	.	?	-0.2%	.	10.9%	-5.5%
CCOC(=O)C1CCN(S(=O)(=O)c2ccc3c(c2)NC(=O)C(C)S3)CC1 (stereo not given)	2.9%	5.7%	-28.4%[46.1 µM]	-23.6%	.	-7.2%[46.1 µM]	.	-4.0%
Nc1nonc1-n1nnc(C(=O)N/N=C/c2cccnc2)c1-c1cccs1	7.7%	-12.8%	-10.2%[46.1 µM]	-8.9%	.	19.9%[46.1 µM]	.	-2.4%
O=C1c2ccccc2CN1CCSC(=S)N1CCOCC1	48.5%	-8.3%	-30.0%	9.9%	0.2%	?	1.7%	-20.1%
CNC(=O)C1(C)C=CC2(CCCCC2)N1C(=O)OC (stereo not given)	15.4%	.	.	-3.8%	5.0%	.	-4.7%	.
Cc1c(C(=O)OCC(=O)N2CCC(C)CC2)oc2ccccc12	-30.0%	.	2.6%	50.7%[activator]	.	?	.	-3.7%

# Brought forward from above: 5 entries; new compounds follow.
Molecule	RE007 growth inh	NS1 inh	MARV entry inh	2A StopGo	Cruzain inh Det	Lassa entry inh	Cruzain inh noDet	SARS PLP yeast
CCOC(=O)C1CCN(S(=O)(=O)c2ccc3c(c2)NC(=O)C(C)S3)CC1 (stereo not given)	2.9%	5.7%	-28.4%[46.1 µM]	-23.6%	.	-7.2%[46.1 µM]	.	-4.0%
Nc1nonc1-n1nnc(C(=O)N/N=C/c2cccnc2)c1-c1cccs1	7.7%	-12.8%	-10.2%[46.1 µM]	-8.9%	.	19.9%[46.1 µM]	.	-2.4%
O=C1c2ccccc2CN1CCSC(=S)N1CCOCC1	48.5%	-8.3%	-30.0%	9.9%	0.2%	?	1.7%	-20.1%
CNC(=O)C1(C)C=CC2(CCCCC2)N1C(=O)OC (stereo not given)	15.4%	.	.	-3.8%	5.0%	.	-4.7%	.
Cc1c(C(=O)OCC(=O)N2CCC(C)CC2)oc2ccccc12	-30.0%	.	2.6%	50.7%[activator]	.	?	.	-3.7%
CCOc1ccc(N(C(C)C(=O)Nc2cccnc2)S(C)(=O)=O)cc1 (stereo not given)	1.7%	4.5%	-9.7%[46.1 µM]	7.0%	.	-13.2%[46.1 µM]	.	-0.3%
COc1cc(NC(=O)CS(=O)(=O)c2ccccc2)cc(OC)c1OC	-24.3%	-0.1%[9.22 µM]	-1.3%	-8.2%	1.7%	-4.6%	-1.2%	1.0%
COc1ccccc1N1CCN(c2nc3ccccc3n3cnnc23)CC1	.	.	0.1%[46.1 µM]	-8.9%	0.1%	.	-5.9%	.
O=C(Cn1c(=O)oc2ccccc21)NCc1ccco1	-10.8%	2.1%	-7.5%	-0.2%	2.7%	-1.0%	4.0%	0.6%
CC(C)c1ccc(NC(=O)C2CCCN(S(=O)(=O)c3cccc4cccnc34)C2)cc1 (stereo not given)	.	.	?	?	-8.5%	?	18.4%	.
O=C(N=Nc1c(O)n(Cc2ccccc2)c2ccccc12)c1ccncc1	-0.1%	-1.4%	3.1%	1.9%	.	.	.	-1.1%
O=C(COc1cccc(-n2cnnn2)c1)N1CCOCC1	1.2%	0.8%	?	-14.3%	2.0%	5.5%	1.0%	-0.5%
CCOc1ccc(/C=C/C(=O)Nc2ccc(OC)cc2[N+](=O)[O-])cc1	-2.6%	-8.3%	-3.4%	-9.0%	-4.3%	-0.3%	?	3.8%
COc1ccc(-c2nc3ccccc3s2)cc1NC(C)=O	2.3%	-8.0%	?	69.2%&39.0%[activator]	-0.5%	-9.3%	-0.6%	-2.1%
O=C(O)c1ccc(C2(c3ccc(C(=O)O)cc3)OC(=O)c3ccccc32)cc1	1.4%	28.9%	.	1.4%	.	.	.	-0.4%
COc1ccc2[nH]cc(CCNC(=O)Cc3c(F)cccc3Cl)c2c1	-4.2%	13.9%	-2.2%	-13.5%	.	-15.4%	.	1.5%
Cc1cc(OCC(O)CNC(C)(C)C)ccc1Cl (stereo not given)	-2.1%	.	?	-10.1%	.	-6.1%	.	2.7%
O=C(c1ccc([N+](=O)[O-])c(CS(=O)(=O)c2ccc(Cl)cc2)c1)N1CCCCC1	-5.8%	.	1.8%[46.1 µM]	-28.4%	.	-21.1%	.	-2.5%
O=C1CCC(C(=O)N2CCSCC2)CN1Cc1ccc(Cl)cc1 (stereo not given)	13.4%	1.0%	.	-3.8%	.	.	.	?
Cc1c(Cl)cccc1NC(=O)CCN1C(=O)C2CC=CCC2C1=O (stereo not given)	6.6%	10.7%	8.7%	-11.8%	.	0.2%	.	-2.2%
CCN(C(=O)c1cc2c(=O)n3cccc(C)c3nc2n1CCCOC)C1CCCCC1	14.7%	-55.4%	.	-26.1%	.	.	.	-8.3%
COc1cc(/C=C2\SC(=O)N(Cc3ccc(Cl)cc3)C2=O)cc([N+](=O)[O-])c1O	1.4%	5.5%	?	?	.	?	.	1.2%
COc1ccc(-c2noc(-c3ccc(N4CCN(C)CC4)c([N+](=O)[O-])c3)n2)cc1OC	.	.	5.7%[46.1 µM]	30.8%[activator]	-2.5%	0.2%[46.1 µM]	-3.3%	.
NS(=O)(=O)c1ccc(CCNC(=O)CSc2ccc(Cl)cc2)cc1	-2.3%	6.9%	-11.1%	-12.2%	-0.3%	2.4%	12.1%	-15.3%
CCOc1cc(C2NC(=O)NC(C)=C2C(C)=O)cc(Cl)c1OCC(=O)O (stereo not given)	-10.9%	-0.4%	-0.1%	.	6.3%	9.4%	-4.8%	6.1%
Cc1cc(=O)n2nc(N3CCCC(C(=O)NCCCN4CC(C)CC(C)C4)C3)sc2n1 (stereo not given)	-9.1%	-1.2%	.	-14.3%	.	.	.	0.7%
Cc1c(O)ccc(NC(=O)/C=C/c2ccccc2)c1C	-2.3%	-2.1%	16.2%[46.1 µM]	13.7%	.	0.0%	.	-1.4%
C=CC1CN2CCC1CC2C(O)c1ccnc2ccccc12 (stereo not given)	-20.5%	.	.	-24.4%&-8.4%&5.4%	0.8%&-4.3%	.	4.6%&7.6%	.
CC(C)CC(=O)Nc1ccc(Oc2ccc3c(c2)C(=O)NC3=O)cc1	5.4%	12.5%	.	-20.1%	.	.	.	-1.4%
COc1ccc(N2CCN(C3CCCN(Cc4ccc(F)cc4)C3)CC2)cc1 (stereo not given)	-8.1%	5.6%	?	-6.9%	.	3.1%[46.1 µM]	.	4.4%
CC1CCCCN1S(=O)(=O)c1ccc(S(=O)(=O)N2CCN(C)CC2)cc1 (stereo not given)	0.1%	15.5%	-0.3%[46.1 µM]	-3.5%	.	.	.	-0.2%
CCCCOC(=O)Nc1ccc(S(=O)(=O)Nc2cc(C)nc(C)n2)cc1	10.9%	7.0%	.	35.4%[activator]	-4.6%	.	-7.5%	-2.0%
CNC(=S)N1N=C(c2ccc(OC)cc2)CC1c1ccccc1Cl (stereo not given)	38.7%	-9.4%	?	-27.9%	.	?	.	-2.6%
CCOc1ccc(CNC(=O)c2ccccc2NC(=O)c2nsc3ccccc23)cc1	.	.	.	11.0%	2.8%	-16.1%[46.1 µM]	-1.7%	.
CCOC(=O)Cn1c(=O)n(CC2CCCO2)c2nc(-c3ccccc3F)nc(C(N)=O)c21 (stereo not given)	.	.	.	-7.9%	-2.7%	-3.0%[46.1 µM]	2.8%	.
O=C(/C=C/c1ccccc1Cl)NCc1ccco1	-13.0%	-82.3%	16.5%	57.5%[activator]	-1.9%	?	-2.9%	-13.5%
Cc1onc(-c2c(Cl)cccc2Cl)c1C(=O)O/N=C(\C#N)c1c(Cl)cccc1Cl	0.4%	-5.4%	.	-1.3%	.	.	.	0.0%
COc1cccc(CCNc2ccc(N3C(=O)CC(C)C3=O)cc2[N+](=O)[O-])c1 (stereo not given)	4.3%	.	2.3%[46.1 µM]	?	.	13.7%[46.1 µM]	.	0.8%

# Source: PubChem
